Screening data from PubChem.
Mtb bLac sens – beta-lactam sensitization of Mtb H37Rv, H37Rv; M. tuberculosis H37Rv growth with meropenem, percent inhibition; hits of this screen are not shown here; inhibition, % at 25 µM; hit rate 0.27% among 330,000;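 active = about 74% or more and at least 40 points above the plate without the antibiotic, then above 30% in a dose series; inconclusive = first-round hits that could not be retested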;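 note: growth measured after seven days incubation then overnight dye step; 0% = bacteria only wells and 100% = bacteria with antibiotic; twin plates without the antibiotic show which effects depend on it; some results filed as inactive read as strong as hits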
* hit, by the source's call; ? = inconclusive.

SMILES	Mtb bLac sens
O=C(Cc1ccc2c(c1)OCCO2)Nc1ccc(Cl)c(S(=O)(=O)N2CCOCC2)c1	-1
COc1cccc(CCN2C(=O)C(=O)N([C@@H](CNCc3ccccc3)Cc3ccccc3F)C[C@@H]2C(C)(C)C)c1	38
COc1ccc(C)cc1NC(=O)C1CCCN(S(=O)(=O)c2cccs2)C1 (stereo not drawn)	-3
COc1cccc(NC(=O)CN(C)C(=O)c2cc3ccccc3cc2OC)c1	3
COc1ccc(C(=O)OCC(=O)NC2CC2)cc1OC	-5
O=C(N/C=C\n1cnc2cc(C(F)(F)F)ccc21)c1ccc([N+](=O)[O-])cc1	1
Cc1sc2ncnc(SCC(=O)Nc3ccc(S(=O)(=O)N4CCOCC4)cc3)c2c1C	-1
O=c1cc(CN2CCN(S(=O)(=O)c3ccccc3)CC2)nc2ccc(Cl)cn12	1
CC1CCCN(S(=O)(=O)c2ccc(NC(=O)C3CCN(C(=O)C(C)(C)C)CC3)cc2)C1 (stereo not drawn)	-3
COc1ccc(C(=O)NNC(=O)c2ccc3ccccc3n2)cc1	15
C#CCOCCOCCOCCNc1nc(N2CCN(C(=O)CCCCCCCCCCNC(=O)Cn3cc(C[C@@H](C)O)nn3)CC2)nc(N2CCN(C(=O)CCCCCCCCCCNC(=O)[C@@H]([C@H](C)CC)n3cc(CCCCCN)nn3)CC2)n1	45
Cc1ccc2c(c1)[C@H]1[C@H](CO2)[C@H](c2ccccc2)[C@]2(C)C(=O)N(CC3CCCO3)CC(=O)N12 (stereo partly drawn)	6
CC1OC(C[N+](C)(C)C)CC1O (stereo not drawn)	-5
COc1ccc2c(c1)[C@@H]1[C@H](CO2)[C@H](c2ccccc2)[C@]2(C)C(=O)NCC(=O)N12	-3
CCc1ccccc1NC(=O)CN1CCN(C(=O)CNC(=O)Cc2cccc3ccccc23)CC1	-6
Cc1ccc[n+](CC(=O)c2ccc(NC(=O)c3ccccc3)cc2)c1C	-4
O=C(COC(=O)c1ccc(OC(F)(F)F)cc1)NCCN1C(=O)CSC1=O	-6
Cc1ccc(S(=O)(=O)NC(C)C(=O)OCC(=O)N(C)c2ccccc2)cc1 (stereo not drawn)	-2
CC(=O)NC(CC(=O)NCCN1C(=O)S/C(=C\c2ccccc2)C1=O)c1ccccc1 (stereo not drawn)	1
CC(C)CC1NC(=O)c2ccccc2-n2c1nc1ccccc1c2=O (stereo not drawn)	-2
CCOc1ccccc1N1CC(C(=O)NNC(=O)c2cc(OC)c(OC)c(OC)c2)CC1=O (stereo not drawn)	-5
CC(NC(=O)C1CCN(C(=O)c2ccc(F)cc2)CC1)c1ccc(-n2ccnc2)cc1 (stereo not drawn)	2
CC(C)N(C(=O)[C@H]1CC(CC(=O)NCC23CC4CC(CC(C4)C2)C3)C(=O)N2CCc3c([nH]c4ccccc34)[C@]12C)C(C)C (stereo partly drawn)	78
COc1ccc(Cl)cc1NS(=O)(=O)c1cccc(C(=O)N2CC(C)OC(C)C2)c1 (stereo not drawn)	-2
CC(C)(C)OC(=O)N[C@@H](Cc1ccccc1)C(=O)N[C@@H](CO)[C@H](O)[C@@H]1C[C@@H]1C(=O)NC1CCCCC1	-4
Other results follow.
SMILES	Mtb bLac sens
Cc1noc(C)c1NC(=O)Nc1ccc2c(c1)C(=O)N([C@@H](C)CO)C[C@@H](C)[C@@H](CN(C)Cc1ccc3c(c1)OCO3)O2	-3
CN(C)c1ccc(S(=O)(=O)NCC(=O)OCC(=O)NC(=O)C2CCCCC2)cc1[N+](=O)[O-]	1
COC(=O)c1ccc(CNC(=O)COC(=O)/C=C/c2ccc(O)c(OC)c2)cc1	13
CCN(C(=O)COC(=O)c1cc(C)n(C2CC2)c1C)c1ccccc1	0
O=C(COC(=O)CC1SC(N2CCCC2)=NC1=O)Nc1c(F)c(F)c(F)c(F)c1F (stereo not drawn)	0
CC(Oc1ccc2c3c(c(=O)oc2c1)CCC3)C(=O)N[C@@H](Cc1ccccc1)C(=O)O (stereo partly drawn)	0
CC1=C(C/C=C(\C)CCCC(C)CCCC(C)CCCC(C)C)C(=O)c2ccccc2C1=O (stereo not drawn)	-3
C/C(=C\c1ccccc1F)C1Nc2cccc3cccc(c23)N1	?
O=C(Cn1nc(-c2ccccc2)oc1=O)OCC(=O)c1ccc(F)c(F)c1	-5
COc1ccc(Br)c(C(=O)OCC(=O)NC2CC2)c1	-2
O=C(COC(=O)c1cc(S(=O)(=O)N2CCCC2)ccc1O)Nc1ccc(F)cc1F	2
O=C(CSc1nnc2ccccn12)NC(=O)c1ccccc1Cl	-4
CCCN(CC(=O)Nc1cc(Cl)ccc1Cl)C(=O)c1ccc(N2CCCC2=O)cc1	-1
CCCCC/C=C/C1=CC(=O)C[C@H](c2ccc(Cl)cc2)C1	5
C=CCC[C@@H](Cc1ccc(F)cc1)C(=O)OC[C@H](C)NC(=O)[C@@H](CC=C)CC(=O)N(CCO)Cc1ccccc1	-1
COc1ccc(-c2nn(CCC#N)cc2C(=O)Nc2cccc(C(=O)O)c2)cc1[N+](=O)[O-]	-6
O=C(NCCC(=O)N1CCN(Cc2c(F)cccc2Cl)CC1)c1ccc(Cl)cc1	-2
O=C1CCC(C(=O)OC(C(=O)Nc2ccc([N+](=O)[O-])cc2Br)c2ccccc2)=NN1 (stereo not drawn)	2
Cc1nn(-c2ccccc2)c(C)c1/C=C/C(=O)OCC(=O)Nc1ccc(C(N)=O)cc1	2
COc1cccc(NC(=O)N2CCC(NC(=O)c3ccco3)CC2)c1	-4
C#CCOCCOCCOCCNc1nc(N2CCOCC2)nc(N2CCN(C(=O)[C@H](CCCCN)n3cc(CN)nn3)CC2)n1	1
CC1CCCC(NC(=O)COC(=O)c2cccc(S(=O)(=O)N3CCCCC3)c2)C1C (stereo not drawn)	3
O=C(NC1CCN(S(=O)(=O)c2cccc([N+](=O)[O-])c2)CC1)C1CCCCC1	-6
Cc1ccccc1NC(=O)COC(=O)c1ccc2nc(C)c(C)nc2c1	-2
CC1CN(C(=O)CCNC(=O)c2ccc(Br)cc2)CC(C)O1 (stereo not drawn)	-1

An excerpt from above in order of length of the SMILES, falling.
SMILES	Mtb bLac sens
CC(Oc1ccc2c3c(c(=O)oc2c1)CCC3)C(=O)N[C@@H](Cc1ccccc1)C(=O)O (stereo partly drawn)	0
Cc1nn(-c2ccccc2)c(C)c1/C=C/C(=O)OCC(=O)Nc1ccc(C(N)=O)cc1	2
O=C(NC1CCN(S(=O)(=O)c2cccc([N+](=O)[O-])c2)CC1)C1CCCCC1	-6
CC1CCCC(NC(=O)COC(=O)c2cccc(S(=O)(=O)N3CCCCC3)c2)C1C (stereo not drawn)	3
CCCN(CC(=O)Nc1cc(Cl)ccc1Cl)C(=O)c1ccc(N2CCCC2=O)cc1	-1
C/C(=C\c1ccccc1F)C1Nc2cccc3cccc(c23)N1	?

New compounds follow.
SMILES	Mtb bLac sens
CCOC(=O)c1sc(NC(=O)CN2C(=O)NC3(CCC(C)CC3)C2=O)c(C(=O)OCC)c1C (stereo not drawn)	7
Cc1ccc(NC(=O)C(c2ccccc2)N2CCN(C(=O)c3ccco3)CC2)cc1 (stereo not drawn)	0
CCCOC1CCCN(C(=O)CCc2nnc(-c3ccc4c(c3)OCO4)o2)C1 (stereo not drawn)	-4
CC1CCN(C(=O)COC(=O)c2cn(C)c3ccccc23)CC1	3
Cc1onc(-c2ccccc2)c1C(=O)OCC(=O)Nc1ccc(OC(F)(F)F)cc1	-7
C[C@H](CO)N1C[C@H](C)[C@@H](CN(C)S(=O)(=O)c2cn(C)cn2)Oc2ccc(NC(=O)C3CCCCC3)cc2C1=O	-3
CCOC(=O)C1=C(CC)Nc2ccccc2N=C1NC(=O)c1cc(S(=O)(=O)N2CCOCC2)ccc1C	6
Cc1ccc(C)c(N(CC(=O)NCc2ccco2)C(=O)CCC(=O)Nc2nccs2)c1	0
COc1ccc(/[N+]([O-])=C/c2ccco2)cc1	8
CC(NCC(=O)Nc1ccccc1C(=O)NC1CC1)c1ccc(S(N)(=O)=O)cc1 (stereo not drawn)	-5
Cn1c(SCC(=O)NC2CCS(=O)(=O)C2)nnc1-c1ccco1 (stereo not drawn)	7
COc1cccc(NC(=O)CN(C)C(=O)c2ccc3c(c2)CC(c2ccccc2)OC3=O)c1 (stereo not drawn)	-4
Cc1ccc(C(=O)NCC(=O)N2CCCCCCC2)cc1	4
COc1ccc(CC(=O)N2CCN(S(=O)(=O)c3ccc(Cl)s3)CC2)cc1	-7
CCOC(=O)c1sc2ncn(CC(=O)Nc3cc(C)on3)c(=O)c2c1C	0
COc1cc(/C=N/NC(=O)C(=O)N2CCCCCC2)ccc1O	?
O=C(CN1CCN(S(=O)(=O)c2cccc(F)c2)CC1)Nc1ccnn1C1CCCC1	-6
CC1(C)CC2CC(C)(CN2C(=O)COC(=O)c2cncc(Br)c2)C1 (stereo not drawn)	4
Cc1cccc(C(=O)OCC(=O)N2CC(C)CC(C)C2)c1C (stereo not drawn)	-3
O=C(NCc1ccccn1)c1cccc(S(=O)(=O)N2CCc3ccccc32)c1	-8
COC(C)(C)[C@@H](O)COc1c2ccoc2cc2oc(=O)ccc12	-1
CCN1CCN(C(=O)C2CCN(S(=O)(=O)c3cc(Cl)ccc3Cl)CC2)CC1	-8
COc1ccc([N+](=O)[O-])cc1NC(=O)COC(=O)Cn1cnc2ccccc2c1=O	-2
COC(=O)c1cc(OC)c(OC)cc1NC(=O)CSCc1c(C)noc1C	-14
COc1ccc(C(CNC(=O)c2ccco2)N2CCOCC2)cc1 (stereo not drawn)	1

As entered above:
CC(C)N(C(=O)[C@H]1CC(CC(=O)NCC23CC4CC(CC(C4)C2)C3)C(=O)N2CCc3c([nH]c4ccccc34)[C@]12C)C(C)C (stereo partly drawn) in Mtb bLac sens is listed with 78
CCc1ccccc1NC(=O)CN1CCN(C(=O)CNC(=O)Cc2cccc3ccccc23)CC1 in Mtb bLac sens is listed with -6
O=C(NC1CCN(S(=O)(=O)c2cccc([N+](=O)[O-])c2)CC1)C1CCCCC1 in Mtb bLac sens is listed with -6
CCCN(CC(=O)Nc1cc(Cl)ccc1Cl)C(=O)c1ccc(N2CCCC2=O)cc1 in Mtb bLac sens is listed with -1
O=c1cc(CN2CCN(S(=O)(=O)c3ccccc3)CC2)nc2ccc(Cl)cn12 in Mtb bLac sens is listed with 1

Some of the entries so far, as comma-separated lines:
smiles,Mtb bLac sens
O=C(CN1CCN(S(=O)(=O)c2cccc(F)c2)CC1)Nc1ccnn1C1CCCC1,-6
CC1(C)CC2CC(C)(CN2C(=O)COC(=O)c2cncc(Br)c2)C1 (stereo not drawn),4

Back to the main list with the 4 entries that preceded the break.
SMILES	Mtb bLac sens
CCN1CCN(C(=O)C2CCN(S(=O)(=O)c3cc(Cl)ccc3Cl)CC2)CC1	-8
COc1ccc([N+](=O)[O-])cc1NC(=O)COC(=O)Cn1cnc2ccccc2c1=O	-2
COC(=O)c1cc(OC)c(OC)cc1NC(=O)CSCc1c(C)noc1C	-14
COc1ccc(C(CNC(=O)c2ccco2)N2CCOCC2)cc1 (stereo not drawn)	1
CS(=O)(=O)c1ccc(C(=O)NNC(=O)c2cccs2)cc1	-5
Cc1cnc(C(=O)OCC(=O)Nc2ccc(OCc3ccccc3)cc2)cn1	-2
CN(C)S(=O)(=O)n1cnc([C@@H]2[C@H]3C(=O)OC[C@@H]3C[C@@]23N=CN(Cc2ccccc2)C3=O)c1	2
O=C(NC[C@@H]1CCCO1)c1cccc2c1C(=O)c1ccc(Cl)cc1S2(=O)=O	-7
Cc1cc(C)c(CNC(=O)c2cc(C3CC3)nc3c2cnn3C(C)C)c(=O)[nH]1	-1
Cc1c(NC(=O)CN(C)CC(=O)Nc2ccc(F)c(F)c2F)c(=O)n(-c2ccccc2)n1C	0
CCOc1ccccc1OCC(=O)Nc1ccc2[nH]c(=O)[nH]c2c1	0
CCOC(=O)C1CCCN(C(=O)COc2ccc(S(=O)(=O)N3CCOCC3)cc2)C1 (stereo not drawn)	2
C#CCOCCOCCOCCNc1nc(N2CCN(C(=O)CCCCCCCCCCNC(=O)[C@H]([C@@H](C)CC)n3cc(CCCCN=C(N)N)nn3)CC2)nc(N2CCN(C(=O)CCCCCCCCCCNC(=O)[C@H](CCCN=C(N)N)n3cc(C[C@@H](C)CC)nn3)CC2)n1	100
CON(C)C(=O)C[C@@H]1C[C@H](OC(=O)c2ccc([N+](=O)[O-])cc2)CN1C(=O)OC(C)(C)C	1
O=C(COC(=O)Cn1cnc2ccccc2c1=O)Nc1ccccc1OC(F)F	-5
CSCCC(NC(=O)c1ccco1)C(=O)NCC(c1ccco1)N1CCCCC1 (stereo not drawn)	-8
COc1cc([N+](=O)[O-])ccc1NC(=O)COC(=O)CCOc1ccc(C)cc1	-1
O=C(CSc1nnnn1C1CC1)N1CCN(c2cccc(Cl)c2)CC1	-3
O=C(Nc1ccc(S(=O)(=O)N2CCCCC2)cc1)C1CC(=O)N(c2ccc(Cl)cc2)C1 (stereo not drawn)	6
N#CCC(=O)Nc1ccc(C(=O)NCC2(N3CCOCC3)CCCCC2)cc1	3
CC(=O)N[C@@H]1CC[C@@]2(O)[C@H]3Cc4ccc(O)c5c4[C@@]2(CCN3CC2CC2)[C@@H]1O5	-7
O=C(COc1ccccc1Cl)N1CCc2ccccc2C1	1
C=CC[C@H](CC(=O)NCCO)C(=O)NC[C@@H](OC(=O)[C@@H](CC=C)Cc1ccc(F)cc1)c1ccccc1	11
COc1cc2cc(CCCOC(=O)c3cc(OC)c(OC)c(OC)c3)oc(=O)c2cc1OC	-6
C=CC[C@@H](Cc1ccc(F)cc1)C(=O)OC[C@H]1CCCN1C(=O)[C@H](CC=C)CC(=O)NCCO	3
CC(C)c1cccc(C2=CC(=O)C[C@H](c3ccc4c(c3)OCO4)C2)c1	48
Cc1cnc(C(=O)Oc2cccc(Cl)c2Cl)cn1	-5
O=C(/C=C/c1ccccc1[N+](=O)[O-])OCC(=O)N1CCCC1	-9
CCOC(=O)C1=C(CC)Nc2ccccc2N=C1NC(=O)c1cccc(S(=O)(=O)N2CCOCC2)c1	9
CCC(=O)c1cn(CCOc2ccccc2OC)c2ccccc12	1
O=c1c2ccccc2ccc2ccccc12	5
CCSC(=O)N1CCCCCC1	-4
CC(=O)OC1=CC[C@H]2[C@@H]3CC[C@H]4C[C@H](OC(C)=O)[C@@H](OC(C)=O)C[C@]4(C)[C@H]3CC[C@]12C	-1
Clc1ccc(-c2cnnc(-c3ccccn3)n2)cc1	0

An excerpt; rates above refer to the full screens.
